Screening data: PubChem, ICCB-Longwood Screening Facility, Harvard Medical School
Polio RdRp inh: inhibitors of poliovirus RNA polymerase binding and polymerization; actives 0.66% (n = 150,000); P03300; % elongation, % (compound at 16.7 µg/mL); poliovirus polymerase elongation, fluorescence polarization; stronger effect = lower value; in the data active = % elongation below about 90%; note: some results filed as inactive read as strong as hits
Target sequence (P03300 1749-2209 limits assumed): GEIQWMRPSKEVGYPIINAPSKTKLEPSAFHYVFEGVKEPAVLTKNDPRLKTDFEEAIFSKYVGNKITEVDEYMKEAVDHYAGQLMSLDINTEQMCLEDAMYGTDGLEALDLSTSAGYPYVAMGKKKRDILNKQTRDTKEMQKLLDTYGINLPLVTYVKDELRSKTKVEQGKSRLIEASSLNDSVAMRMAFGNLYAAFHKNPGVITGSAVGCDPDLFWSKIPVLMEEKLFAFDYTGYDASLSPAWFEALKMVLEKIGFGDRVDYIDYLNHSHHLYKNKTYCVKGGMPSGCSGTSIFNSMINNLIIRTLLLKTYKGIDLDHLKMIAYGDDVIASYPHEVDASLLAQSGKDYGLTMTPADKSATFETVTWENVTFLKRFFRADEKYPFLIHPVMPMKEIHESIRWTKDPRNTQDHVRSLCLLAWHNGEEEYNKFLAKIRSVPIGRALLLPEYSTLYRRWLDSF
Polio RdRp inh intensity: second read-out of Polio RdRp inh, no call of its own (marks repeat the call); % elongation; measured here: total intensity read-out; formula for this scale not given here;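 total fluorescence in place of polarization; lower means less elongation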
Active calls of the source: *. A portion of the library; count on the stated rates, not on these rows.

SMILES	Polio RdRp inh	Polio RdRp inh intensity
CC(NC(=O)c1ccc(Cn2c(SCc3ccccc3)nc3cccnc32)cc1)c1ccccc1 (stereo not given)	110	115
COc1ccccc1-c1noc(-c2ccc(NCc3cccnc3)c([N+](=O)[O-])c2)n1	112	112
O=S(=O)(NCC(c1ccco1)N1CCN(c2ccccc2)CC1)c1cc(F)ccc1F (stereo not given)	103	107
CC1=Nc2cc(C(=O)N3CCC(C)CC3)ccc2Sc2ccc(Cl)cc21	113	117
Cc1cc2c(cc3c(SCc4cccc(F)c4)nnc(C)n32)o1	111	107
COc1cccc(CNC(=O)c2c(O)nc3ccccn3c2=O)c1	111	113
Cc1ccc(OCCn2c(CNc3cccc(C)c3)nc3ccccc32)cc1	105	105
Cc1c(CNCCCc2ccccc2)c(C(=O)O)c(C)n1Cc1cccc(Cl)c1	107	108
CCOC(=O)C1CCC(CN(Cc2ccc(OC)cc2)S(=O)(=O)c2ccc(F)c(C(=O)Nc3c(C)cccc3C)c2)CC1 (stereo not given)	108	106
Cc1ccc(C)c(N2CCN(S(=O)(=O)c3cn(C)c(C)n3)CC2)c1	98	105
CSc1ccc(CCNC(=O)CCc2c(C)nc3cc(-c4ccccc4)nn3c2C)cc1	106	109
Cc1ccc(C(=O)Nc2nc3nc(-c4ccccc4)cc(=O)n3[nH]2)cc1	105	86
CC(C)c1ccc(-c2noc(SCC(=O)N3CCCCC3C)n2)cc1 (stereo not given)	108	112
CCn1c(CN2CCC(C)CC2)nc2cc(NC(=O)COc3ccc([N+](=O)[O-])cc3)ccc21	108	110
CCCCOc1cccc(C(=O)Nc2cccc(-c3nc4ncccc4o3)c2C)c1	109	113
COc1ccc(C(=O)N2CC(=O)Nc3ccc(Br)cc3C2c2ccc(F)cc2)cc1OC (stereo not given)	102	103
CCn1c(=O)c(=O)n(CC)c2cc(S(=O)(=O)Nc3ccc(C)cc3)ccc21	103	105
COc1ccc(Cn2c(CNC(=O)c3ccc(N(C)C)cc3)nc3cccnc32)cc1	104	110
Cc1ccc(-c2nc3nc(C)cc(C)n3c2Nc2ccc3c(c2)OCCO3)cc1	108	107
COc1ccc(N2CCN(C(=O)C3Cc4ccccc4N3C(C)=O)CC2)cc1 (stereo not given)	98	105

Full records from above:
CC(C)c1ccc(-c2noc(SCC(=O)N3CCCCC3C)n2)cc1 (stereo not given) in the list: Polio RdRp inh = 108; Polio RdRp inh intensity = 112
COc1cccc(CNC(=O)c2c(O)nc3ccccn3c2=O)c1 in the list: Polio RdRp inh = 111; Polio RdRp inh intensity = 113
CSc1ccc(CCNC(=O)CCc2c(C)nc3cc(-c4ccccc4)nn3c2C)cc1 in the list: Polio RdRp inh = 106; Polio RdRp inh intensity = 109

Following part.
SMILES	Polio RdRp inh	Polio RdRp inh intensity
CCCc1cc(=O)[nH]c(SCC(=O)N2CCN(c3ccccc3)CC2)n1	99	89
Cc1cc(C)c(NC(=O)Cn2c(=O)n(Cc3ccc4c(c3)OCO4)c(=O)c3ccccc32)c(C)c1	110	110
Cc1cc2c(cc1S(=O)(=O)N1CCCCC1)OCC(=O)N2	96	93
Cc1cccc(NC(=O)CN(C)S(=O)(=O)c2ccc3c(c2)CCC(=O)N3)c1C	106	109
CCC(=O)N1c2ccccc2CC1C(=O)NCCN1CCN(c2ccccc2F)CC1 (stereo not given)	103	107
CCN(CC)S(=O)(=O)c1ccc2c(c1)N(CC(=O)NCCCN1CCN(c3ccc(OC)cc3)CC1)C(=O)CO2	108	102
Cc1ccc(CNC(=O)Cc2coc3cc(C)cc(C)c23)cc1	114	115
CCOC(=O)c1cnc2ccc(OC)cc2c1NCCc1ccccc1	100	104
CCC(C)Nc1nc2c(c(=O)[nH]c(=O)n2C)n1Cc1ccc(F)cc1 (stereo not given)	107	108
Cc1ccc(NC(=O)CSc2nccn2C2CCCC2)cc1	112	111
COc1ccc(CCNc2oc(COc3cccc(C)c3)nc2C#N)cc1OC	102	98
CCOC(=O)c1c(C)[nH]c(C)c1S(=O)(=O)NCC(=O)Nc1cccc(Cl)c1	105	114
COc1ccccc1NC(=O)CN1C(=O)c2ccccc2Sc2ccc(C(=O)N3CCCC3)cc21	107	108
COC(=O)c1ccc(-c2nc3cc(NC(C)=O)ccc3o2)cc1	98	97
CCOC(=O)CNC(=O)Nc1cc(C(=O)NCc2cccc(F)c2)ccc1N1CCCC1	111	114
CCOC(=O)c1noc2ncnc(Nc3ccc(C)c(F)c3)c12	108	108
COc1ccc(-c2nc(C)c(CCNC(=O)C(=O)Nc3c(C)cccc3C)s2)cc1OC	111	110
COc1cccc(N2CCN(C(=O)c3ccc(NC(=O)c4nsc5ccccc45)cc3)CC2)c1	109	116
Cc1oc(-c2cccc(Cl)c2)nc1CN1CCC(C(=O)NCCc2ccc(Cl)cc2)CC1	109	112
Cc1ccc(CNC(=O)C2CCN(S(=O)(=O)c3c(C)noc3/C=C/c3cccs3)CC2)cc1	108	110
Cc1cc(C(=O)NCc2cccc(Br)c2)c2c(C)nn(-c3ccccc3)c2n1	105	101
Cc1nn(CC(=O)NCc2ccc(OC(C)C)cc2)c(=O)c2c(C)n(-c3ccc(Cl)cc3)nc12	107	115
COc1ccc(NC(=O)c2sc3nc[nH]c(=O)c3c2C)cc1OC	102	97
CCc1cccc(C)c1Nc1c(-c2ccc(SC)cc2)nc2sccn12	105	105
CCc1ccc(NC(=O)CSc2ccc3nnc(CCNS(=O)(=O)c4ccc(OC)cc4)n3n2)cc1	103	103
Cc1cc(-c2ccc(S(=O)(=O)Nc3ccc(Cl)cc3)cc2)on1	104	110
CCOC(=O)c1ccc(NC(=O)c2oc3ccc4c(c3c2C)C(=O)CC(C)(CC)O4)cc1 (stereo not given)	109	106
Cc1c(Cl)cccc1NC(=O)CSc1nc(=O)n(CCN2CCOCC2)c2c1CCC2	98	103
CCOC(=O)c1cc(-c2ccc(F)cc2)n(CC(=O)NC2CCCCCC2)c1C	98	104
O=C(NCCc1ccc(Cl)cc1)c1ccc(CS(=O)Cc2ccccc2Cl)o1 (stereo not given)	112	115
Cn1c(=O)n(-c2ccc3c(c2)OCO3)c2nc(-c3ccccc3)nc(C(N)=O)c21	104	108
CCOC(=O)C1CCN(C(=O)c2ccc(-n3ccc4ccccc43)s2)CC1	109	110
COc1ccccc1NC(=O)c1sc2nc(C)c(C(=O)Nc3ccc(C)cc3C)c(-c3ccccc3Cl)c2c1N	109	107
CCOC(=O)c1sc2ccccc2c1S(=O)(=O)Nc1ccc(N(C)C)cc1	111	102
O=S1(=O)c2ccccc2N(Cc2ccc(F)cc2)c2ccccc21	106	107
CC1=C(C(=O)Nc2ccccc2)C(c2cccs2)n2nc(SCc3ccccc3)nc2N1 (stereo not given)	105	110
CC(C)c1ccc(NC(=O)CCCc2nc(-c3ccc(Cl)cc3)no2)cc1	104	101
COc1cc(Cl)c(C)cc1NC(=O)c1cnn(-c2ccc(F)cc2F)c1C1CCN(C(=O)OC(C)(C)C)CC1	103	105
CCc1cccc(NC(=O)CCc2c(C)nc3c(c2C)c(=O)n(C)c(=O)n3C)c1	104	104
Cc1nnc(N2CCC(C(=O)N3CCCCC3)CC2)c2nn(-c3ccc(Cl)cc3)c(C)c12	109	101
COc1ccc(CNc2nc3c(-c4cccc(C)c4)nnn3c3ccccc23)cc1	105	108
Cc1ccccc1-c1nc2scc(CCNC(=O)C(=O)Nc3ccc(F)cc3F)n2n1	113	118
Cc1ccc(-c2noc(CNC(=O)c3ccc(C(C)(C)C)cc3)n2)cc1	106	108
CCN(CC)S(=O)(=O)c1ccc2c(c1)c(=O)c(C(=O)NCc1ccccc1Cl)cn2C	105	104
Cc1ccc(C)c(N2CCN(C(=O)C3CCC(CNS(=O)(=O)c4ccc(Br)s4)CC3)CC2)c1 (stereo not given)	107	105
CCOc1ccc(NC(=O)N2CC=C(c3c[nH]c4ccccc34)CC2)cc1	132	205
CCCCNC(=O)CSc1nc2cc3c(cc2c(=O)n1CCCCCC(=O)NCc1ccc2c(c1)OCO2)OCO3	107	105
Cc1cc(C)n(C(C)CC(=O)Nc2ccc(C)c(F)c2)n1 (stereo not given)	101	103
O=C(Nc1ccc(S(=O)(=O)N2CCCCC2c2cccnc2)cc1)c1ccc(Br)cc1 (stereo not given)	106	105
COc1ccc(C(=O)NCCc2sc(-c3cccc(F)c3)nc2C)cc1	104	107

(cont.)
SMILES	Polio RdRp inh	Polio RdRp inh intensity
CCN(CC)c1cc(C)c2cc(NC(=O)c3ccc(F)cc3Cl)ccc2n1	102	104
Cc1ccc(CNC(=O)CCCCCn2c(=O)c3sccc3n(CC(=O)C(C)(C)C)c2=O)cc1	105	107
CCOC(=O)c1noc2ncnc(N(CCC(=O)OC)c3ccccc3)c12	99	94
CCOc1ccc(CNC(=O)Cn2nc(C)c3c(C)n(-c4ccc(C)cc4)nc3c2=O)cc1	104	104
CCc1ccc(C(=O)c2c(N)c(-c3nc(-c4ccc5c(c4)OCO5)cs3)c3ccccn23)cc1	112	114
Cc1ccc(NC(=O)CC2Sc3ccc(C(F)(F)F)cc3NC2=O)cc1 (stereo not given)	103	104
COc1cccc2sc(=NC(=O)c3ccc(S(=O)(=O)N4CCCCC4)cc3)n(C)c12	103	104
Cc1cc(C)c(NC(=O)Cc2csc(C)n2)c(Cl)c1	106	106
Cc1nn(Cc2noc(C(=O)NCc3ccc(F)cc3)n2)c(C)c1Br	102	98
COc1ccc(C(=O)Nc2ccc3nc(SCc4ccc(C)cc4)sc3c2)cc1	106	105
COC(=O)Cn1c(C2CC(=O)N(c3c(C)cccc3C)C2)nc2ccccc21 (stereo not given)	112	115
CC(C)c1ccc(NC(=O)c2ccc(NC(=O)CCS(=O)(=O)c3cccs3)cc2)cc1	105	110
Cc1cccc(N2CCN(C(=O)C3CCCN(S(=O)(=O)c4ccc(Br)s4)C3)CC2)c1C (stereo not given)	112	112
Cc1oc(-c2cccc(Cl)c2)nc1CSc1nnc(C)n2c1cc1occc12	104	105
Cc1ccc(-c2nc(S(=O)(=O)c3ccc(C)cc3)c(SCC(=O)NC3CCCCC3)o2)cc1	105	103
Cc1ccc(C)c(Cn2c3ccccc3c3cnn(CC(=O)N4CCCCC4)c(=O)c32)c1	108	111
CCCCNC(=O)C1CCCN(Cc2nc(-c3ccc(Cl)cc3)oc2C)C1 (stereo not given)	107	106
CC(C)Oc1ccc(CNC(=O)C2CCN(Cc3cc4ccccc4n3Cc3ccccc3)CC2)cc1	105	108
CCN(CC)C(=O)c1sc2c(c1C)c(=O)n(-c1ccc(C)c(C)c1)c(=O)n2Cc1cc(=O)n2c(C)cccc2n1	106	106
Cc1cccc(CN2C(=O)c3ccccc3S(=O)(=O)c3ccc(C(=O)N4CCN(c5cc(C)ccc5C)CC4)cc32)c1	108	108
COc1ccc(-n2nc(C(=O)N3CCN(c4cccc(C)c4)C(C)C3)c3c4ccccc4n(C)c3c2=O)cc1 (stereo not given)	112	111
Cc1ccc(NC(=O)c2cnn3c(C(F)F)cc(-c4ccccc4)nc23)cc1F	106	110
CNC(=O)C1CCC(Cn2c(=O)c3sccc3n(CC(=O)NCc3ccc(OC)cc3)c2=O)CC1 (stereo not given)	117	109
COc1ccc(Cn2c(C(=O)O)c(CNCCc3ccco3)c3ccc(C)cc32)cc1	111	107
CC(=O)c1ccc(NC(=O)CSc2nc(-c3ccccc3F)nc3c2c(=O)n(C)c(=O)n3C)cc1	105	113
CCOC(=O)c1cc(-c2ccccc2)n(-c2cccc(C(=O)Nc3ccc(OC)cc3)c2)c1C	99	102
N=c1n(CCO)c2ccccc2n1CCOc1ccc(F)cc1	108	108
CCOC(=O)N1CCc2c(sc3c2c(=O)n(-c2ccc(Cl)cc2)c(=O)n3CC(=O)Nc2ccccc2)C1	107	108
CCn1nc(-c2ccccc2)c(-c2ccccc2)c(C(=O)Nc2ccccc2C(N)=O)c1=O	109	106
O=C(NCCc1ccccc1)C1CCN(c2ncnc3c2nc2n3CCCCC2)CC1	113	116
Cc1ccc(Cl)cc1N(C)C(=O)C1CCCN(c2ncnc3onc(-c4ccc(F)cc4)c23)C1 (stereo not given)	113	108
COc1ccc(NC(=O)CCc2nnc3n(CC(C)C)c(=O)c4ccccc4n23)cc1	104	108
Cc1ccc(S(=O)(=O)c2nc(-c3ccccc3)oc2SCC(=O)NC2CCCCC2)cc1	102	99
COc1ccc(NC(=O)c2cnc3sc(N4CCOCC4)nn3c2=O)c(OC)c1	104	111
CCOc1cccc(C(=O)Nc2ccc3oc(-c4ccncc4)nc3c2)c1	96	136
CCC(=O)N1CCc2cc(S(=O)(=O)NC(CC(C)C)C(=O)NCc3ccc(C)cc3)ccc21 (stereo not given)	101	100
CCCN(CCC)S(=O)(=O)c1ccc(C(=O)N2CCn3c4c(c5cc(C)ccc53)CCCC42)cc1 (stereo not given)	103	106
Cc1ccc(C)c(N2CCN(C(=O)CCc3nnc4n(C)c(=O)c5ccccc5n34)CC2)c1	108	105
O=C(NC1CCCCC1)c1ccc2c(c1)N(Cc1cccc(Cl)c1)C(=O)c1ccccc1S2=O (stereo not given)	108	108

Arranged by length of the SMILES (low to high): some entries from above
SMILES	Polio RdRp inh	Polio RdRp inh intensity
CCOc1cccc(C(=O)Nc2ccc3oc(-c4ccncc4)nc3c2)c1	96	136
COc1ccc(NC(=O)c2cnc3sc(N4CCOCC4)nn3c2=O)c(OC)c1	104	111
COc1ccc(NC(=O)CCc2nnc3n(CC(C)C)c(=O)c4ccccc4n23)cc1	104	108
Cc1ccc(S(=O)(=O)c2nc(-c3ccccc3)oc2SCC(=O)NC2CCCCC2)cc1	102	99
O=C(NC1CCCCC1)c1ccc2c(c1)N(Cc1cccc(Cl)c1)C(=O)c1ccccc1S2=O (stereo not given)	108	108
Cc1ccc(Cl)cc1N(C)C(=O)C1CCCN(c2ncnc3onc(-c4ccc(F)cc4)c23)C1 (stereo not given)	113	108
